TRPML1 ag – human mucolipin-1 channel agonism. TRPML1-expressing cells, Ca2+ dye fluorescence, FDSS; host cell line not named in the record; reference of the full effect not given here. hit rate 0.12% among 410,000. AID 624414. Q9GZU1. activation, % (no concentration beside the values); in the data active = activation above about 50%; inconclusive = about 30% to 50%; inactive = below about 30%; note: 0% is about no effect; the text of the record puts the active cut at 80%
Target sequence (Q9GZU1 whole entry, looked up): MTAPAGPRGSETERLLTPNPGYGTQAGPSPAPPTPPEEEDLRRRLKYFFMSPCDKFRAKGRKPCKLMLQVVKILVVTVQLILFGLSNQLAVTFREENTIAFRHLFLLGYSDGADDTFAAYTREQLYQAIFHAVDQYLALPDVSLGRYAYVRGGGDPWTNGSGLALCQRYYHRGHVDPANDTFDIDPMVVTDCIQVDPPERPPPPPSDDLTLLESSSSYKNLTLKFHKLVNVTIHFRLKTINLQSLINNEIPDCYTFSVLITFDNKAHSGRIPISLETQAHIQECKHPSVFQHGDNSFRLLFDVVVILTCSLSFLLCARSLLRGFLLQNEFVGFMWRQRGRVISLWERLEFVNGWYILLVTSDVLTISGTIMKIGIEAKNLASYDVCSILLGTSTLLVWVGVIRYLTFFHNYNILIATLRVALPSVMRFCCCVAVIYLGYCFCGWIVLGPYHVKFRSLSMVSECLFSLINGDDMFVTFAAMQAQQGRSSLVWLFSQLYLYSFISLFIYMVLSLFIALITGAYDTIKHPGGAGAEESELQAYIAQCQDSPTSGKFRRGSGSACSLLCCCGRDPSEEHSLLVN
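Tetracycline-induced TRPML1-DL cells are seeded and incubated overnight before loading with a no-wash Ca2+ dye and quencher. Agonist activity is taken from the 110 s fluorescence read following compound pin-transfer on an FDSS, before EC80 54-4 challenge.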
Six1-Eya2 blk – inhibitors of human Six1/Eya2 interaction; AlphaScreen GST-Six1/His-Eya2 binding, biochemical; stronger effect = lower value; control for the full effect not named in the record; activity change, % (no concentration beside the values); hit rate 0.56% among 360,000; Q15475+O00167; AID 651725; in the data active = activity change below about -65%; inconclusive = about -30% to -65%; inactive = above about -30%; note: % is set by controls: 0 for no effect and ±100 for the full control effect; compound concentration not given in the record
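Six1/Eya2 binding was read as AlphaScreen signal after compounds were pinned into GST-Six1 plus His-tagged Eya2 (5X stock 250/500 nM) in pH 8.0 Tris/NaCl/TCEP buffer, beads added, then incubated 1 h, 37 C, dark.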
TRPML1 inh – inhibitors of human TRPML1 channel. activity change, negative = inhibition, % (no concentration beside the values). TRPML1-inducible cells, Ca2+ dye fluorescence, FDSS; stronger effect = lower value; inhibition of EC80 agonist-evoked calcium signal. AID 624415. hit rate 0.02% among 390,000; in the data active means activity change below about -50%; inconclusive means about -30% to -50%; inactive means above about -30%;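 note: stimulus is agonist 54-4 at its EC80 concentration; % is set by controls: 0 for no effect and ±100 for the full control effect; compound concentration not given in the record; the text of the record puts the active cut at -80%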
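Calcium fluorescence in TRPML1-DL cells induced overnight with Tet: a 110 s read after compound pin addition, then a 110 s antagonist read after challenge with 54-4 at 4 uM final (EC80).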
TRPV1 potentiator – human TRPV1 potentiation. Q8NER1. TRPV1-expressing cells, Fluo-8 calcium influx, capsaicin EC20 potentiation; host cell line not named in the record; control for the full effect not named in the record. potentiation, % at 8.33 µM. hit rate 0.02% among 320,000; active means potentiation above 80%; inconclusive means 30% to 80%; inactive means below 30%; note: 0% is about no effect
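TRPV1-expressing cells were cultured overnight at 35.5C and loaded with Fluo-8 calcium dye for 40 to 90 min at room temperature. After a 10 s baseline, compound was added and calcium influx was read kinetically for 3 min (ex 480/em 520 nm).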
D2 PAM – potentiates the human D2 dopamine receptor allosterically; P14416; DiscoveRx D2 beta-arrestin cells, luminescence, 90 min; 100% = 57 uM dopamine signal; potentiation, % (test concentration not listed); AID 624464; hit rate 0.23% among 360,000; active = potentiation of 50% or more; inconclusive = 30% to 50%; inactive = 30% or less;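 note: compound concentration not given in the record; tested on top of an EC20 dose of dopamine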
Target sequence (P14416 whole entry, looked up): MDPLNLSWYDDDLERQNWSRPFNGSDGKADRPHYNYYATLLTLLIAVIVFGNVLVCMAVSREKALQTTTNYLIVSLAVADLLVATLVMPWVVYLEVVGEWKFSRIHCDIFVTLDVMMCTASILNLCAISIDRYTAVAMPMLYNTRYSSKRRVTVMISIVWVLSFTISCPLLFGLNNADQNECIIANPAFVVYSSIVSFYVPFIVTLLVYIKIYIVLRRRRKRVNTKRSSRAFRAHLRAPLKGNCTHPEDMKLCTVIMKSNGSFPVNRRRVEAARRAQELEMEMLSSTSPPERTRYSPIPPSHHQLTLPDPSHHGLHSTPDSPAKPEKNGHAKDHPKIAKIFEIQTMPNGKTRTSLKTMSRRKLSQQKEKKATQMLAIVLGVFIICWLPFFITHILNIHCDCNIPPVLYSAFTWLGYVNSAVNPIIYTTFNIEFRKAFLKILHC
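D2 cells co-treated with compound plus 50 nM dopamine (EC20) for 90 min at 37 deg C to detect potentiation. Beta-arrestin recruitment was read as enzyme-fragment luminescence after 1 h at ambient temperature. Full response was set by 57 uM dopamine.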
CtBP-E1A blk – CtBP/E1A binding inhibition; AlphaScreen GST-E1A/His-CtBP binding, 1536-well; stronger effect = lower value; control for the full effect not named in the record; activity change, % (test concentration not listed); hit rate 0.49% among 340,000; in the data active means activity change below about -65%; inconclusive means about -30% to -65%; inactive means above about -30%; note: % is set by controls: 0 for no effect and ±100 for the full control effect; compound concentration not given in the record
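Protein mix (5X: 125 nM each GST-E1A, His-CtBP) was incubated with pinned compound 2 h at 37 deg C in dark, in 50 mM Tris pH 8.0 buffer with 300 mM NaCl. Glutathione donor and nickel acceptor beads followed; AlphaScreen signal read after 1 h.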
* = called active by the depositor; ? = inconclusive; . = not tested or not shown.

SMILES	TRPML1 ag	Six1-Eya2 blk	TRPML1 inh	TRPV1 potentiator	D2 PAM	CtBP-E1A blk
Cc1ccc(N(CCC#N)C(=O)CCl)cc1C	-0.4	9	-8	16	-4	2
COc1ccc(CC(=O)OCC(=O)NCc2ccccc2Cl)cc1	-0.7	-4	-9	-23	-5	1
CCCCOC(=O)c1nnc(-c2ccc(Cl)cc2)o1	-0.4	-10	20	-27	-7	-18
Cc1cc(C)cc(OCC(=O)N(Cc2ccccc2)C2CCS(=O)(=O)C2)c1 (stereo not given)	-1.1	16	20	28	-3	0
COc1cc(CNCCC2CCOC(C)(C)C2)ccc1O (stereo not given)	-0.7	6	5	-2	-2	6
Cc1nc(N2N=C(c3ccc(Cl)cc3)CC2c2ccco2)sc1C(=O)N(C)C (stereo not given)	-0.3	12	8	21	-2	17
CC1(C(=O)NS(=O)(=O)c2ccccc2)CCN1C(=O)CCc1ccccc1 (stereo not given)	-0.4	4	.	.	-5	1
CC1(C(=O)Nc2cccc(Oc3ccccc3)c2)CCN1Cc1ccccc1OC(F)F (stereo not given)	2.1	15	.	.	-5	18
COc1cccc(/C=C/C(=O)c2c(O)cc(C)oc2=O)c1O	3.1	-9	-3	5	-6	-3
CN1CCN(C(=O)C2=C[C@@H](c3ccccc3)C[C@@H](OCc3ccc(CO)cc3)O2)CC1	0.8	-8	14	10	-10	-12
CCOc1cc(C)c(C(C)C)cc1S(=O)(=O)n1cnc(C)c1	0.4	-21	12	-7	3	2
Cc1ccc(CCNC(=O)CNC(=S)N(Cc2ccccc2)Cc2cccnc2)cc1	3.8	6	-12	21	-4	-1
O=C(N/N=C/c1ccco1)Nc1ccccc1	-0.7	-6	-9	-3	-5	4
CC(Sc1ccc(Br)cc1)C(N)=O (stereo not given)	2.1	1	5	?	4	5
CCSc1nc(=O)n(-c2ccccc2)c(C)c1C(C)=O	-0.3	6	6	6	-11	2
CCCCCCCCOC(=O)/C=C/c1c(C)[nH]c(=O)[nH]c1=O	1.0	7	-4	-5	3	17
O=C(/C=C(\c1ccc(Cl)cc1)n1cncn1)c1ccc(Cl)cc1	-0.1	0	-4	12	-10	8
CN(Cc1ccc2c(c1)CCCN2C)C(=O)[C@H]1O[C@@H](n2cnc3c(N)ncnc32)[C@H](O)[C@@H]1O	-0.4	-7	-12	.	-3	-19
Fc1ccc(/C=N/Nc2ccccn2)cc1	3.7	-1	-13	16	-9	-8
Clc1ccc(N2CCN(c3cnc4ccccc4n3)CC2)cc1	-0.4	40	28	1	-22	40

Arranged by molecular weight (descending): part of the list above
SMILES	TRPML1 ag	Six1-Eya2 blk	TRPML1 inh	TRPV1 potentiator	D2 PAM	CtBP-E1A blk
COc1ccc(CC(=O)OCC(=O)NCc2ccccc2Cl)cc1	-0.7	-4	-9	-23	-5	1
O=C(/C=C(\c1ccc(Cl)cc1)n1cncn1)c1ccc(Cl)cc1	-0.1	0	-4	12	-10	8
Clc1ccc(N2CCN(c3cnc4ccccc4n3)CC2)cc1	-0.4	40	28	1	-22	40
Fc1ccc(/C=N/Nc2ccccn2)cc1	3.7	-1	-13	16	-9	-8

(more compounds)
SMILES	TRPML1 ag	Six1-Eya2 blk	TRPML1 inh	TRPV1 potentiator	D2 PAM	CtBP-E1A blk
CN(C)C(=O)CNC(=O)CN1C(=O)NC2(CCCc3sccc32)C1=O (stereo not given)	-0.3	10	-26	-1	-2	1
CCN(C(=O)COC(=O)CC(C)c1ccccc1)c1c(N)n(Cc2ccccc2)c(=O)[nH]c1=O (stereo not given)	1.5	7	15	4	-1	-8
CCOC(=O)c1ccccc1NC(=O)c1ccc2nccnc2c1	2.3	-8	-17	-1	11	-6
C=CCC1(CC=C)CCCN1C(=O)CC1C(=O)NCCN1Cc1ccccc1OC (stereo not given)	-0.3	-1	-5	-4	-4	2
CN(C)c1ccc(/C=C(/NC(=O)c2ccccc2)C(=O)NCCN2CCOCC2)cc1	2.7	0	-16	14	0	.
O=C(NC1CCCCC1)[C@H](O)[C@@H](O)C(=O)NC1CCCCC1	-0.4	0	0	-21	-1	5
Cc1nn(CC(=O)NC(=O)c2ccccc2)c(C)c1[N+](=O)[O-]	0.4	2	-15	0	-2	-23
CCN(CC)c1ccc(C=Nc2ccc(C)cc2C)c(O)c1	1.7	13	-5	-19	3	0
CN(C(=O)CSc1nnc(CNC(=O)c2ccccc2)o1)c1ccccc1	0.0	-7	-10	-2	3	-4
Cc1ccc(-c2csc(NC(=O)CN3CCC(C(N)=O)CC3)n2)cc1	-0.4	4	-4	0	1	4
CN(C)CCCCCCCCCCC(=O)/C=N/O	0.8	0	-12	.	-23	1
COCCn1c(SCC(=O)c2c[nH]c3ccccc23)nnc1-c1ccncc1	0.0	5	-10	-12	-6	0
CC(C)c1ccc(C2CC(c3ccc(Br)cc3)=NN2C(N)=S)cc1 (stereo not given)	2.2	-13	-12	1	-23	-23
COc1ccc(-n2ncc3c(=O)n(CC(C)=O)cnc32)cc1	-0.4	-3	6	-12	0	6
O=C(N/N=C\c1c(O)ccc2ccccc12)c1cncc(Br)c1	?	?	2	-24	0	?
CC(=O)N1CCOc2ccc(S(=O)(=O)NCCc3ccc(S(N)(=O)=O)cc3)cc21	0.0	12	17	13	-4	-3
CC1(OC(=O)CCc2ccccc2)C(=O)C=C2C=C(c3ccc(C#N)cc3)N(CCN3CCOCC3)C=C2C1=O (stereo not given)	-0.1	1	11	-19	21	3
CCOc1ccc(CNC(=O)c2ccc(Sc3ccc(C)cc3)c(NC(C)=O)c2)cc1OC	1.3	-10	-3	-5	-4	-7
CN(C(=O)CSc1nnc(Nc2ccccc2)s1)C1CCS(=O)(=O)C1 (stereo not given)	-0.7	-5	-12	1	-1	-4
COc1ccc(N2CCN(C(=O)C3CCN(S(=O)(=O)c4c(C)noc4/C=C/N(C)C)CC3)CC2)cc1	-1.0	-13	-5	-10	1	-12

SMILES	TRPML1 ag	Six1-Eya2 blk	TRPML1 inh	TRPV1 potentiator	D2 PAM	CtBP-E1A blk
CCOC(=O)c1cc(CN2CCOCC2)oc1-c1ccccc1	1.2	5	2	3	-9	6
CC(N=Cc1ccccc1O)c1ccccc1 (stereo not given)	0.0	2	-1	9	-8	2
Cc1cnc(C(=O)OCC(=O)Nc2cc(-c3cc(C)c(C)cc3C)nn2-c2ccccc2)cn1	0.0	-3	14	5	-11	6
CN(Cc1ccccc1)C(=O)C1CCC(CNS(=O)(=O)c2cccc3cccnc23)CC1 (stereo not given)	0.7	-8	3	12	-14	.
CN(C(=O)COC(=O)CCc1nc2ccccc2c(=O)[nH]1)C1CCS(=O)(=O)C1 (stereo not given)	0.0	-1	-6	3	-5	11
CC1CCc2nn(CC(=O)NCc3ccc4c(c3)OCO4)cc2C1 (stereo not given)	0.6	4	14	3	-1	1
Cc1cccn2c(CNC3CCCc4ccccc43)c(C(=O)N3CCCCC3)nc12 (stereo not given)	-1.0	-12	7	-7	-26	-3
O=C(Nc1cccc(C(F)(F)F)c1)Nn1cnnc1	-0.2	-10	-1	-5	-36	-14
COc1ccc(N/N=C(\C=N\O)C(=O)c2ccc(OC)cc2)cc1	1.1	-25	5	-3	-4	4
COc1cccc(CNS(=O)(=O)c2ccc(N3CCCC3=O)cc2)c1	0.0	5	7	-3	1	-13
CCN(CC)CC1CN(N=Cc2ccc([N+](=O)[O-])o2)C(=O)O1 (stereo not given)	-0.4	-3	-2	.	4	-8
C[C@]12C(=O)N(c3cccc(Cl)c3)C(=O)N1[C@H]1c3ccccc3OC[C@@H]1[C@H]2c1ccccc1	-0.4	0	-7	0	-38	1
Cc1ccc(C)c(OCCC(=O)Nc2ccc3c(c2)OCO3)c1	2.8	-10	8	-4	-17	4
Cn1c(=O)c2c(nc(NCc3cccnc3)n2Cc2ccccc2Cl)n(C)c1=O	0.7	2	-2	-9	-1	-2
Cc1cc2cc(C(c3nnnn3CC3CCCO3)N3CCCc4ccccc43)c(=O)[nH]c2cc1C (stereo not given)	0.6	-17	0	-4	-6	-5
O=C(O)c1cccc(COCC(F)(F)C(F)F)c1	0.9	1	19	6	-11	2
C=CCN(c1ccccc1)S(=O)(=O)c1cccc(C(=O)OCC(=O)NCCOC)c1	0.2	1	-12	-8	-13	-6
O=C(Nc1ccnc(-c2cccnc2)n1)c1ccc(Cl)c(Cl)c1	0.1	2	9	4	-2	3
CC1(C)CC(=O)C=C(C(=O)N2CCCC(C(=O)c3cc(F)ccc3F)C2)O1 (stereo not given)	-0.1	1	2	.	-3	-18
CC(C)(C)OC(=O)N(CC1CCNCC1)C(=O)c1[nH]c(C(F)(F)F)nc1-c1ccccc1	0.0	-6	.	.	0	3

SMILES	TRPML1 ag	Six1-Eya2 blk	TRPML1 inh	TRPV1 potentiator	D2 PAM	CtBP-E1A blk
CC1(C(=O)NNC(=O)c2cccc([N+](=O)[O-])c2)CC1Br (stereo not given)	-0.6	11	-6	.	-23	5
OC(c1ccc(Cl)c(F)c1)c1ncc(-c2ccc(F)cc2)[nH]1 (stereo not given)	-1.3	-15	.	.	-6	-11
Cc1ccc(NS(=O)(=O)c2ccc3[nH]c(=O)sc3c2)cc1	-0.2	-1	-2	-10	1	7
O=C(CSc1nc2ccccc2c(=O)n1CCCN1CCOCC1)NCCc1ccccc1	-0.2	9	11	.	-5	.
COc1ccc(N2C(=O)CC(N3CCOCC3)C2=O)cc1 (stereo not given)	-0.1	-11	-6	-3	-9	8
O=C(Nc1ccc2nc(-c3ccco3)[nH]c2c1)c1cccs1	-0.4	?	-10	-10	1	?
CCOC(=O)c1cnc2ccc(OCC)cc2c1N1CCN(c2ccccc2)CC1	3.1	-19	36	-9	-24	-23
O=C(Cn1cccc1)N1CCc2ccccc21	0.0	-2	12	6	-7	-11

Whole records from above. Order of screens: TRPML1 ag | Six1-Eya2 blk | TRPML1 inh | TRPV1 potentiator | D2 PAM | CtBP-E1A blk
Cn1c(=O)c2c(nc(NCc3cccnc3)n2Cc2ccccc2Cl)n(C)c1=O across the screens: 0.7 | 2 | -2 | -9 | -1 | -2
CC(=O)N1CCOc2ccc(S(=O)(=O)NCCc3ccc(S(N)(=O)=O)cc3)cc21 across the screens: 0.0 | 12 | 17 | 13 | -4 | -3
